Screening data from PubChem.
HPGD block = HPGD (human) dehydrogenase inhibition. P15428. purified HPGD, NADH fluorescence kinetic, PGE2 substrate. Potency, µM, for inactives: top-dose activity change, negative = inhibition, hits mostly inhibitors. 150,000 tested, 4.3% active. AID 894; active = well fitted inhibition curve with a large enough effect (not every such curve was filed as active); inconclusive = small, poorly fitted or top-dose-only effect, or another doubt; inactive = no such curve, though single readings can be large or run the other way;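 further: top concentration of the series not given in the record; plate controls included wells without enzyme; inactives centre near -10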
Target sequence (P15428 whole entry, looked up): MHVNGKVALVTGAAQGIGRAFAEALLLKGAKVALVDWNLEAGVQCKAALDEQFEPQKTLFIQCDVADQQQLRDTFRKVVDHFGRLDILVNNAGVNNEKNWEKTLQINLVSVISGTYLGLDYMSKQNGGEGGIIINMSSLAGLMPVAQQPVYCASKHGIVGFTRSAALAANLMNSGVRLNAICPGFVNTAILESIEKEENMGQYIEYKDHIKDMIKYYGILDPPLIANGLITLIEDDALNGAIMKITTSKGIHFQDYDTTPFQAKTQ
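20 nM HPGD preincubated 15 min at room temperature with compound in 50 mM Tris-HCl pH 8, 0.01% Tween 20. Started with 1 mM NAD+ and 30 uM prostaglandin E2; NADH fluorescence (360/450 nm) read 5 times over 30-s intervals, last minus first.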
* = called active by the depositor; ? = inconclusive; & = joins results of further samples. On the % scale 0 is the no-effect control and ±100 the full control effect; potency means the concentration at half of the fitted maximal effect. Some of the compounds tested; rates above refer to the full screens.

No.	SMILES	HPGD block
1	Cc1cc([N+](=O)[O-])c2[nH]c(C(=O)N/N=C/c3ccccc3C(=O)O)c(-c3ccccc3)c2c1	?
2	N#Cc1nc(-c2ccccc2)oc1NCc1ccco1	?
3	COc1ccc(-n2c(C)cc(C(=O)COC(=O)Cn3cnc4ccccc43)c2C)cc1	-29%
4	CN1CC(c2ccccn2)C2(SC(=S)N(Cc3ccccc3)C2=O)C12C(=O)Nc1ccccc12 (centres undefined)	-3%
5	CCOc1ccc(C(=O)N2CCCC2)cc1	7.9µM*
6	Cc1cc(C)c2cc3c(N)c(C(=O)N4CCc5ccccc5C4)sc3nc2c1	7.1µM*
7	CCc1nc(SCC(=O)Nc2nc3c(s2)CCCC3)c2ccccc2n1	-9%
8	O=C(NCCc1ccc2c(c1)OCCO2)c1ccccc1F	-8%
9	CC(C)(C)C1=Nn2c(nnc2-c2n[nH]c3c2CCC3)SC1	16µM*
10	O=C1OCc2cc(NC(=O)C3CCCO3)ccc21 (centres undefined)	-3%
11	Clc1ccc(Nc2nc(C3CC3)cs2)cc1	?
12	CC(C)OP(=O)(OC(C)C)C(O)c1ccc2c(c1)OCO2 (centres undefined)	-2%
13	O=C(Nc1ccccc1)N(O)c1ccc(Cl)cc1	-28%
14	CC1CC(=O)N(CC(=O)Nc2ccc3c(c2)OCO3)c2ccccc2S1 (centres undefined)	-8%
15	COC/C=C/C1=CC2=CC(=O)C(C)(OC(=O)c3cnc4ccccc4n3)C(=O)C2=CN1c1cccc(C#N)c1 (centres undefined)	-4%
16	O=C(Nc1c(C(=O)N2CCCCC2)cnn1-c1ccccc1)c1ccccc1	-7%
17	CCOC(=O)c1cccc(NC(=O)CNC(=O)C2CCCCC2)c1	-1%
18	CC1(C)CC(=O)C(C=NCc2ccccn2)=C(O)C1	-10%
19	c1ccc(Cc2nc(-c3ccccn3)no2)cc1	-27%
20	COC(=O)CN1C(=O)C(O)(CC(=O)c2ccc(Cl)cc2)c2ccccc21 (centres undefined)	-10%
21	CCC1SC2=NCCN2C1(O)c1ccc(Cl)cc1 (centres undefined)	3%
22	CCOc1ccc(-c2nnn(CC(=O)NCc3ccc4c(c3)OCO4)n2)cc1	0%
23	CCCC(NS(=O)(=O)c1ccc(C)cc1)C(=O)O (centres undefined)	1%
24	COc1cc(C(=O)N2CCN(C(=O)COc3ccc4ccccc4c3)CC2)cc(OC)c1OC	-9%
25	COc1cc(/C=C/C(=O)O)cc(S(=O)(=O)Nc2cccc(SC)c2)c1OC	-5%
26	COc1cc2c(cc1OC)C1C/C(=N\O)C(CC(C)C)CN1CC2 (centres undefined)	2%
27	COC(=O)c1cc(C(=O)Nc2nnc(CC(C)C)s2)cc([N+](=O)[O-])c1	-16%
28	COc1ccc(C(=O)NC(NC(=O)c2ccc(OC)c(OC)c2)c2ccccc2F)cc1OC	-13%
29	O=C(Nc1cccc(C(F)(F)F)c1)C(SCCO)c1ccccc1 (centres undefined)	-11%
30	O=C(O)c1ccc(NC(=O)C2C3CCC(C3)C2C(=O)O)cc1 (centres undefined)	-9%
31	C[C@]1(C(=O)NCCN2CCOCC2)C=C[C@@H](Cc2ccccc2)N1C(=O)c1ccccc1	-7%&-7%
32	COc1cc2[nH]c(=S)n(CCCN3CCOCC3)c(=O)c2cc1OC	-12%
33	COc1ccccc1N1CCN(Cc2cccc(OC)c2OC)CC1	4%
34	CC(=O)N(CN1C(=O)CCC1=O)c1cccc(Cl)c1	-7%
35	CN1CCN(Cc2ccc(OCc3ccccc3)cc2)CC1	0%
36	CC(=O)Nc1ccc(N(C)C)cc1[N+](=O)[O-]	-7%
37	COc1ccc(N2CCN(C(=O)COc3ccc(Cl)cc3Cl)CC2)cc1	-11%
38	Cc1cccc(CCNS(=O)(=O)c2ccc3c(c2)n(C)c(=O)c(=O)n3C)c1	-21%
39	Cn1c(=O)c(C(=O)CCl)c(N)n(Cc2ccccc2)c1=O	-7%
40	COc1ccc(CNC(=O)c2ccc(SC)cc2OC)cc1	-21%
41	O=C(c1cc(-c2ccc(Cl)cc2)n(-c2ccc(Cl)c(Cl)c2)n1)N1CCOCC1	-4%
42	CCN1CCCC1CN(Cc1cc2ccc(C)cc2[nH]c1=O)C(=S)Nc1ccc(OC)cc1 (centres undefined)	-11%
43	Cc1cc(OCc2nn[nH]n2)c2c(-c3ccccc3)cc(=O)oc2c1	?
44	Cc1nnc(SCC(=O)NCC2CCCCC2)n(N)c1=O	-9%
45	COc1ccccc1CNc1ncncc1-c1ccc(N(C)C)cc1	?
46	NC(N)=NS(=O)(=O)c1ccc(N)cc1	-9%&-13%&-6%
47	COc1cccc(NC(=O)COC(=O)c2cc(S(=O)(=O)N3CCOCC3)ccc2C)c1	-13%
48	CCOc1c(Cl)cc(/C=N/O)cc1OC	-7%
49	O=C(c1cc2c(s1)CCCC2)N1CCN(Cc2ccc3c(c2)OCO3)CC1	-27%
50	CC(C)(C)Sc1nc(O)cc(=O)[nH]1	-1%
51	CCOC(=O)/C(C#N)=C/c1cc2ccccc2nc1Cl	-10%
52	O=C(CCC1CCCC1)N1CCN(C2CCCC2)CC1	-1%
53	CC1CCc2c(sc(NC(=O)COC(=O)c3ccccc3NCc3ccco3)c2C#N)C1 (centres undefined)	?
54	O=C(COc1ccc(-c2nnc(N3CCCCC3)c3ccccc23)cc1)N1CCCCC1	?
55	COCC(=O)N1CCC[C@@]2(CCN(C(=O)Nc3ccccc3)C2)C1	-10%
56	CC(=O)Nc1nnc(Cc2ccccc2)s1	-13%
57	CCOC(=O)c1ccc(S(=O)(=O)Nc2ccccc2-c2nnn(CC)n2)cc1	-2%
58	CC(C)n1nnnc1SCC(=O)N1CCN(C(=O)c2ccco2)CC1	-2%
59	N=C1C(c2nc3ccccc3s2)=C(O)CN1CCCO	-15%
60	Cc1nnc(SCCn2c(N3CCN(C)CC3)nc3c2c(=O)n(C)c(=O)n3C)s1	-3%

(more compounds)
No.	SMILES	HPGD block
61	Cc1cc(NC(=O)/C(C#N)=C/c2ccc(-c3cccc(C(F)(F)F)c3)o2)n(-c2ccccc2)n1	-19%
62	CCCS(=O)(=O)N1CCC(C(=O)NCc2ccco2)CC1	7%
63	CCCCCNC(=O)CCn1c(=O)oc2ccccc21	-1%
64	CC1CCCCC12NC(=O)N(CC(=O)c1ccc[nH]1)C2=O (centres undefined)	-1%
65	CCCC(=O)Nc1nc2ccc(S(=O)(=O)N3CCCCC3)cc2s1	-13%
66	O=c1[nH]c(Cc2ccc(F)cc2)nc2scc(-c3ccc(F)cc3)c12	22µM*
67	CCOC(=O)c1[nH]c2ccc(OC)cc2c1NC(=S)N1CCN(c2ccccc2)CC1	-18%
68	Cc1cccc(-c2nnc3n2N=C(c2ccccc2Br)CS3)c1	2.5µM*
69	O=C(Cn1cnc2c(oc3ccccc32)c1=O)NCc1ccco1	-9%
70	CCOC(=O)Cn1c(=NC(=O)c2cc(-c3cccs3)nc3ccccc23)sc2cc(S(N)(=O)=O)ccc21	?
71	Nc1cc(=O)nc(SCC(=O)Nc2ccccc2)n1-c1ccccc1	-14%
72	COc1ccc(OC)c(S(=O)(=O)N2CCC(C(=O)N3CCc4ccccc4C3)CC2)c1	22µM*
73	Nc1ccc2oc3ccccc3c2c1	?
74	Cc1ccccc1C(=O)NNC1CC(=O)N(c2ccc3c(c2)OCCO3)C1=O (centres undefined)	-6%
75	CCOC(=O)CCc1c(C)c(C#N)c2[nH]c3ccccc3n2c1=O	?
76	CCOc1ccccc1C1N(c2ccc(F)cc2)C(=O)C2CCCN21 (centres undefined)	-8%
77	COc1ccc(CCNc2cc(N3CCN(C(=O)c4ccccc4F)CC3)ccc2[N+](=O)[O-])cc1OC	-23%
78	COCc1nnc(NC(=O)c2ccc(S(=O)(=O)N(C)C3CCCCC3)cc2)o1	-15%
79	Cc1[nH]nc2c1C(c1ccccc1F)NC2=O (centres undefined)	-9%
80	COc1ccc(COC(=O)NNC(=O)c2ccc(OC)cc2)cc1	-8%
81	CSc1nncc(-c2ccc(F)cc2)n1	-29%
82	CCCCOc1ccc(-c2nnn(C(C)(C)C(=O)OC)n2)cc1	-4%
83	COC(=O)c1c(NC(=O)CN2CCC3(O)CCCCC3C2c2ccccc2OC)sc(C)c1C (centres undefined)	?
84	C=CCNC(=O)C1CC(=O)N(c2ccc(C)cc2)C1 (centres undefined)	-14%
85	CCC/S(CC1CC1(Cl)Cl)=N\S(=O)(=O)c1ccc(C)cc1 (centres undefined)	-8%
86	CCCn1c(-c2cc(OC)c(OC)c(OC)c2)nc2nc3ccccc3nc21	-17%
87	O=C(Cc1cccs1)Nc1ccccc1C(=O)O	-5%
88	COC(=O)C1=C(C)NC(C)=C(C(=O)OC(C)C)[C@H]1c1cccc2nonc12	-4%
89	O=C(c1ccc(Br)s1)N1CCN(C/C=C/c2ccccc2)CC1	-24%
90	CN[C@H]1CCc2cc(OC)c(OC)c(OC)c2-c2ccc(N[C@@H]3CCCCNC3=O)c(=O)cc21	-9%
91	CCNc1nc(NCC)n2c(SCC(=O)Nc3ccc(C(F)(F)F)cc3[N+](=O)[O-])nnc2n1	-11%
92	O=C(c1ccc(Cn2cc([N+](=O)[O-])cn2)o1)N1N=C(C(F)F)CC1(O)C(F)F (centres undefined)	-3%
93	C=CCn1c(SCc2c(C)noc2C)nc2cc(C(=O)O)ccc2c1=O	-24%
94	COc1ccc(NC(=S)NN2CCN(C)CC2)cc1	-2%
95	COc1ccc(C(c2sc3nc(C)nn3c2O)N2CCc3ccccc3C2)cc1 (centres undefined)	22µM*
96	O=C(CCn1nnc(-c2cccs2)n1)N1CCc2ccccc2C1	16µM*

Another view of 2 compounds above.
91. CCNc1nc(NCC)n2c(SCC(=O)Nc3ccc(C(F)(F)F)cc3[N+](=O)[O-])nnc2n1
  HPGD block: -11%
90. CN[C@H]1CCc2cc(OC)c(OC)c(OC)c2-c2ccc(N[C@@H]3CCCCNC3=O)c(=O)cc21
  HPGD block: -9%

Other structures:
No.	SMILES	HPGD block
97	CC(C)(C)NC(=O)c1ccc2c(c1)C1C3CCC(C3)C1C(c1ccccc1)N2 (centres undefined)	-11%
98	COc1c(O[C@H]2O[C@@H](CO)[C@@H](O)[C@@H](O)[C@@H]2O)cc2c(c1OC)-c1ccc(SC)c(=O)cc1[C@H](NC(C)=O)CC2	2%
99	Cc1nc2cc(N3CCCCC3)c(NC(=O)c3ccncc3)cc2c(=O)n1Cc1ccccc1	-4%
100	Cn1c(N2CCN(C(=O)Nc3ccc(F)cc3)CC2)nc2ccccc21	-13%
101	CCCc1nc2ccccc2c(=O)n1NC(=O)c1c(O)c2cccc3c2n(c1=O)CCC3	-20%
102	O=C(NN(C(=O)C1CC1)c1nc2ccccc2s1)C1CC1	-16%
103	O=C(CN1C(=O)S/C(=C/c2cccnc2)C1=O)N1CCOCC1	-8%
104	C=CCn1c(C)cc(C)c(C#N)c1=O	?
105	CCOC(=O)C1CCN(C(=O)COc2cc(C)c(Br)cc2C)CC1	-10%
106	CCN(CC)c1ccc(CN(C(=O)c2ccco2)C2CCS(=O)(=O)C2)cc1 (centres undefined)	-5%
107	COc1cc2c(cc1OC)C(C(=O)N1CCCCC1)C(c1ccccc1F)N(C)C2=O (centres undefined)	-11%
108	CCC(C)NC(=O)c1ccccc1NC(=O)C(C)N(c1ccccc1)S(C)(=O)=O (centres undefined)	-14%
109	CC(C)Nc1nc(NC(C)C)nc(Oc2ccc(OCc3ccccc3)nn2)n1	-8%
110	O=C(CN1CCN(Cc2ccccc2Cl)C1=O)NCc1ccco1	-1%
111	CCCN1CC(CSC)C[C@H]2c3cccc4[nH]cc(c34)C[C@H]21 (some centres undefined)	-8%
112	Cc1ccc(Cn2nc(C)c(NC(=O)c3noc4c3CCCCC4)c2C)cc1	-19%
113	O=C(CCNc1n[nH]c(=O)[nH]c1=O)N1CCCCC1	1%
114	COc1ccccc1C(=O)OCc1c(F)cccc1Cl	-9%
115	CC(C)C(C(=O)NC(C)(C)C)N1C(=O)c2ccccc2C1=O (centres undefined)	-11%
116	CCCc1nc2oc3c(=O)[nH]cnc3c2c2c1CCCC2	?
117	O=C(Nc1ccc2c(c1)CCC2)C1CCCN(c2ncccn2)C1 (centres undefined)	-13%
118	CC(NC(=O)c1cc(-c2cccs2)on1)c1ccccc1 (centres undefined)	-11%
119	Cc1ccc(CC2C(=O)N(CC(=O)O)C(=O)C2C)cc1 (centres undefined)	-6%
120	O=C(c1cccc2ccccc12)N1CCN(c2ccc([N+](=O)[O-])c(N3CCOCC3)c2)CC1	-19%

Another view of some results above.
[109] CC(C)Nc1nc(NC(C)C)nc(Oc2ccc(OCc3ccccc3)nn2)n1
  HPGD block: -8%

[110] O=C(CN1CCN(Cc2ccccc2Cl)C1=O)NCc1ccco1
  HPGD block: -1%

[111] CCCN1CC(CSC)C[C@H]2c3cccc4[nH]cc(c34)C[C@H]21 (some centres undefined)
  HPGD block: -8%

[112] Cc1ccc(Cn2nc(C)c(NC(=O)c3noc4c3CCCCC4)c2C)cc1
  HPGD block: -19%

More structures follow.
No.	SMILES	HPGD block
121	CCOC(=O)C1CCN(C(=O)C23CC4CC(CC(C4)C2)C3)CC1	3%
122	C=CC1=C2C=C(C3CC3)N(Cc3ccccc3)C=C2C(=O)C(C)(OC(=O)c2ccco2)C1=O (centres undefined)	-1%
123	C/C(CC(=O)N(C(C)C)C(C)C)=N\NC(=O)COc1ccc(Br)cc1Br	-24%
124	O=C(CCCOc1ccc(Cl)cc1)N1CCCCC1	1.6µM*
125	CC1(C)Cc2nc(N)c(=O)sc2C1	-6%
126	Cc1cc(C)n(C2=NS(=O)(=O)c3ccccc32)n1	-6%
127	CN(C)Cc1ccccc1-c1cncnc1NCc1cccnc1	-6%
128	COc1ccccc1C(=O)N1CCN(c2nc3cc(C)c(C)cc3cc2C#N)CC1	?
129	CC1CCN(C(=O)CN2C(=O)C(=O)c3ccccc32)CC1	-7%
